StopGo RLuc: lowers the Renilla signal of an FMDV 2A StopGo reporter; HEK cells with a luciferase reporter of 2A StopGo recoding; Potency, µM (series often up to 57.5 µM), for the others: at the highest dose signal change, negative = less light; 120,000 tested, 0.32% active; AID 1745857; active means well fitted falling curve with a large enough effect; inconclusive means small, poorly fitted or top-dose-only effect; inactive means no such curve, though single readings can be large or run the other way; further: nearly all actives have a fitted effect of over 55% in size; overnight with compound
StopGo FLuc: lowers the firefly signal of an FMDV 2A StopGo reporter; HEK cells with a luciferase reporter of 2A StopGo recoding; Potency, µM (highest dose often 57.5 µM), inactives show at the top dose signal change, negative = less light; 120,000 tested, 0.23% active; active = well fitted falling curve with a large enough effect; inconclusive = small, poorly fitted or top-dose-only effect; inactive = no such curve, though single readings can be large or run the other way; further: nearly all actives have a fitted effect of over 60% in size; overnight with compound
Numbers without * were called inactive; ? = inconclusive; [ ] = dose if it differs, or a comment. On the % scale 0 is the no-effect control and ±100 the full control effect; potency means the concentration at half of the fitted maximal effect.

SMILES | StopGo RLuc | StopGo FLuc
COc1ccc(Cn2c(SCC(=O)NCc3ccccc3)nc3ccccc32)cc1 | 33%[activator] | 2%
O=C(NCc1ccccn1)c1nn(-c2ccccc2F)nc1CO | ? | 0%
COc1cc(/C=C/C(=O)O)cc(Br)c1OC(C)C | 13% | 38%[activator]
COc1ccc(NC(C)=O)cc1S(=O)(=O)NC(c1ccc(F)cc1)c1cccs1 (stereo not given) | 50%[activator] | -11%
O=C(O)/C=C/c1ccccc1Cl | -6% | 6%
Cc1cccc(C(C)C)c1NC(=O)c1ccc2c(c1)CCC2 | 9% | 28%
CC(C)CNC(=O)CN1CCN(Cc2nc3ccccc3o2)CC1 | -18% | -16%
CCC(=O)O[C@H]1[C@H](O[C@@H]2[C@@H](C)[C@H](O[C@H]3C[C@@](C)(OC)[C@@H](O)[C@H](C)O3)[C@@H](C)C(=O)O[C@H](CC)[C@@](C)(O)[C@H](O)[C@@H](C)C(=O)[C@H](C)C[C@@]2(C)O)O[C@H](C)C[C@@H]1N(C)C | -7% | -13%
CCNc1nc(NC(C)CC)nc(Oc2ccc(OCC)nn2)n1 (stereo not given) | 43%[activator] | 91%[activator]
Cc1c(CC(=O)Nc2nc3ccccc3[nH]2)c(=O)oc2cc(O)ccc12 | 10% | 44%[activator]
O=C(Cc1n[nH]c(=O)c2ccccc12)NC(c1ccccc1)C1CC1 (stereo not given) | 1% | 12%
CCCc1c(C)c2ccc(OCC(=O)c3ccccc3)cc2oc1=O | -15% | 3%
O=C(CSc1nccn1Cc1ccc(Cl)cc1)Nc1ccc2c(c1)OCCO2 | 14% | 17%
O=C1CCCC2=C1C(c1ccc(Br)cc1)c1c([nH]n(-c3ccccc3)c1=O)N2 (stereo not given) | 353%[activator] | 32%[activator]
CC(C)CCn1c(=O)n(CC(=O)O)c(=O)c2c3c(sc21)COC(C)(C)C3 | -12% | -1%
N#CC1=C(N)OC2=C(C1c1cccnc1)S(=O)(=O)N(Cc1ccccc1)c1ccccc12 (stereo not given) | 15% | 9%
Cc1cc(=O)n2c(C(=O)Nc3ccc(Br)cc3)c(C(=O)Nc3ccccc3)sc2n1 | -3% | -9%
CCCCOc1ccc(CNC(=O)c2ccc3c(c2)N(C)C(=O)C2CCCCN32)cc1 (stereo not given) | 86%[activator] | 11%
CCn1nc(C(=O)Nc2cccc(F)c2)c2ccccc2c1=O | 7% | 16%
CCOCCCNCc1cccc(Cl)c1 | -3% | -3%
CC1C(OC(=O)c2ccc(CS(C)(=O)=O)cc2)CC2CC1C2(C)C (stereo not given) | 9% | 12%
COc1ccc(Br)cc1[C@@H]1Nc2ccc(C(=O)O)cc2[C@@H]2C=CC[C@@H]21 | -16% | -32%
O=C(O)CC12CC3CC(CC(Cl)(C3)C1)C2 | -4% | 3%
COP(=O)(OC)c1nc(Cc2cccc3ccccc23)oc1NCc1ccc2c(c1)OCO2 | 25% | 20%
O=C(CCC1NC(=O)c2ccccc2NC1=O)NC1CCCCCC1 (stereo not given) | -6% | -1%
Cc1ccc(-c2cc(NC(=O)COc3ccc(Cl)cc3C)on2)cc1 | -6% | 23%
CC(C)c1cc(=O)oc2cc(OS(=O)(=O)c3ccc4c(c3)OCCO4)ccc12 | -13% | -9%
O=c1c2ccc(Cl)cc2nc2n1CC/C2=C/c1cccc(O)c1 | -2% | 23%
CC(C)CN(C(=O)c1nn(C)c(=O)c2ccccc12)c1nc2ccccc2s1 | 5% | 0%
C=CC[N+]1(CC#Cc2ccc(C#CC[N+]3(CC=C)CCOCC3)cc2)CCOCC1 | -3% | -1%
Cc1ccc(NC(=O)CSc2nc3c(=O)[nH]cnc3n2C)cc1F | -8% | 17%
CC(N)(CO)c1cccc(C(F)(F)F)c1 (stereo not given) | 6% | 6%
COc1ccc(Cl)cc1NC(=O)CCc1nc(-c2ccccc2F)no1 | 1% | -3%
COc1ccc2cnn(CC(=O)Nc3cc(F)ccc3F)c(=O)c2c1OC | 15% | 3%
Cn1c(CN2CCOCC2)nc2cc(NC(=O)c3ccccc3[N+](=O)[O-])ccc21 | ? | ?
Cc1cccc(OCC(=O)N(Cc2ccc(N(C)C)cc2)Cc2ccco2)c1C | -12% | -1%
COCCN1C(=O)c2ccccc2C(C(=O)Nc2cccc(OC)c2)C12CCCC2 (stereo not given) | -10% | -9%
Cc1ccc(C(=O)N2CCc3cc(CNC(=O)c4ccnn4C)ccc32)cc1 | ? | ?
Cc1ccc(S(=O)(=O)Nc2nc3ccccc3nc2N2CCCCC2)cc1 | 9% | 2%
COCCn1c(C(=O)NCc2ccccn2)nc2ccccc2c1=O | -2% | 6%
COC(=O)/C=C/c1cc(OC)c(OC)c(S(=O)(=O)Oc2ccc3c(c2)CCC3)c1 | 125%[activator] | -4%
CCCc1nn2c(=O)cc(COC(=O)c3ccccc3NC(=O)c3ccc(Cl)cc3)nc2s1 | -3% | -6%
CCNC(=S)N/N=C(/C)c1ccccc1Br | 14% | 13%
COc1ccccc1C(=O)Nc1nc2nc(C)c(Cc3ccccc3)c(=O)n2[nH]1 | 6% | 1%
Cc1cnc2c(S(=O)(=O)NCC(C)(C)N3CCOCC3)cccc2c1 | 98%[activator] | 2%
O=C(CCc1c[nH]c2ccccc12)Nc1cccc(Cl)c1 | 25% | 149%[activator]
CCN(C(C)C(=O)Nc1ccc(C)cc1)S(=O)(=O)c1cccc2cc(C)cnc12 (stereo not given) | 63%[activator] | 1%
FC(F)(F)CN1CCN(c2nc(-c3cccnc3)nc3ccccc23)CC1 | -8% | -1%
COc1ccc(Cl)cc1NC(=O)COC(=O)CC(C)(C)CC1=NS(=O)(=O)c2ccccc2N1 | 152%[activator] | -33%
COc1ccc(CNc2oc(/C=C/c3ccc(F)cc3)nc2C#N)cc1 | -14% | 27%
COc1ccc(/C=C/C(=O)Nc2nc3n(n2)C(c2ccccc2)C=C(c2ccc(Cl)cc2)N3)cc1 (stereo not given) | 11% | 22%
Cc1cccc2c(=O)cc(CSc3ccccc3NC(=O)C(C)C)[nH]c12 | 3% | -12%
COc1ccc(C(=O)Nc2c(C(=O)c3ccccc3)oc3ccccc23)cc1 | -9% | -17%
CCOC(=O)C1CCN(S(=O)(=O)c2cc3c4c(c2)C(C)C(=O)N4CCC3)CC1 (stereo not given) | -1% | -17%
CC(=O)N1CCN(c2ccc(O)cc2)CC1 | 2% | -5%[11.5 µM]
Cc1ccc(NC(=O)Cn2cc(S(=O)(=O)Cc3cccc(Cl)c3)c3ccccc32)cc1C | 0% | -2%
O=C1CC(c2cccc(Br)c2)c2cc(Br)c3ccccc3c2N1 (stereo not given) | -6% | -1%
CCOc1ccc(C(CC(=O)Nc2ccc(CC)cc2)N2Cc3ccccc3C2=O)cc1OC (stereo not given) | 101%[activator] | -3%
COc1ccccc1C1CC(=O)N(c2cccc(F)c2)C2=C1C(=O)OC2 (stereo not given) | 0% | 0%
Cc1ccccc1C(=O)Nc1sc2c(c1C(=O)NCc1ccco1)CCC(C(C)(C)C)C2 (stereo not given) | -2% | 27%

Structures from the list above that have fluorine (ten):
SMILES | StopGo RLuc | StopGo FLuc
O=C(NCc1ccccn1)c1nn(-c2ccccc2F)nc1CO | ? | 0%
COc1ccc(NC(C)=O)cc1S(=O)(=O)NC(c1ccc(F)cc1)c1cccs1 (stereo not given) | 50%[activator] | -11%
CCn1nc(C(=O)Nc2cccc(F)c2)c2ccccc2c1=O | 7% | 16%
Cc1ccc(NC(=O)CSc2nc3c(=O)[nH]cnc3n2C)cc1F | -8% | 17%
CC(N)(CO)c1cccc(C(F)(F)F)c1 (stereo not given) | 6% | 6%
COc1ccc(Cl)cc1NC(=O)CCc1nc(-c2ccccc2F)no1 | 1% | -3%
COc1ccc2cnn(CC(=O)Nc3cc(F)ccc3F)c(=O)c2c1OC | 15% | 3%
FC(F)(F)CN1CCN(c2nc(-c3cccnc3)nc3ccccc23)CC1 | -8% | -1%
COc1ccc(CNc2oc(/C=C/c3ccc(F)cc3)nc2C#N)cc1 | -14% | 27%
COc1ccccc1C1CC(=O)N(c2cccc(F)c2)C2=C1C(=O)OC2 (stereo not given) | 0% | 0%

(cont.)
SMILES | StopGo RLuc | StopGo FLuc
COc1cc(C2SCC(=O)Nc3c2c(C)nn3C)ccc1OCc1ccccc1C (stereo not given) | ? | -23%
O=C(NCCc1ccc(Cl)cc1)c1cnc2sc(N3CCCCC3)nn2c1=O | -6% | -9%
Cc1cc(C(=O)N2CCN(c3cccc(C)c3C)CC2)c2c(C)nn(-c3ccccc3)c2n1 | 12% | 0%
CCc1ccc(NCc2cc3cc4c(cc3n(CC(=O)Nc3ccccc3C)c2=O)OCCO4)cc1 | -9% | 33%[activator]
COc1ccc(CNc2ncnc3c2c(-c2ccccc2)cn3-c2cccc(C)c2)cc1 | -6% | -19%
COc1cccc(Cn2c(=O)n(CC3CCC(C(=O)NC(C)C)CC3)c(=O)c3sccc32)c1 (stereo not given) | -3% | -20%
COCCN(CCOC)C(=O)COc1cc2oc(=O)cc(C)c2cc1Cl | 0% | 7%
COc1ccccc1OC(C)C(=O)Nc1c(C(=O)c2ccc(Cl)cc2)oc2ccccc12 (stereo not given) | -4% | -4%
COc1ccccc1N1CCN(C(=O)CCn2cnc3ccccc3c2=O)CC1 | -8% | 2%
CN1CCN(c2oc(-c3cccc(Cl)c3)nc2C#N)CC1 | 11% | 0%
CCN(CC)C(=O)CSc1nc(-c2ccc(OC)cc2)nc2c1COC(C)(C)C2 | 27% | -3%
COC(=O)c1c(SCC(=O)Nc2ccccc2OC)[nH]c2ccccc2c1=O | -2% | 10%
Cn1nc(C(=O)NCc2ccc(Cl)cc2Cl)c2ccccc2c1=O | ? | ?
CN(C)CCCOc1nn(Cc2ccccc2)c2ccccc12 | -13% | -1%[11.5 µM]
O=C(NN1CCN(C(c2ccccc2)c2ccccc2)CC1)c1ccc(F)cc1Cl | -27% | -22%
Cc1c(C(=O)OC(C)C#N)oc2c1ccc1ccccc12 (stereo not given) | 17% | 0%
O=C(O)c1cnc(Cl)c(Cl)c1 | 13% | 5%
Cc1ccc(OCCOC(=O)C2COc3ccccc3O2)cc1 (stereo not given) | 6% | 6%
CCc1ccc(CN(C)C(=O)CN2CCN(c3ccc([N+](=O)[O-])c4cnccc34)CC2)cc1 | -17% | -18%
COc1ccc(N2CCN(S(=O)(=O)CCNC(=O)COc3ccccc3F)CC2)cc1 | 16% | -4%
COc1ccc(C(CNC(=O)CN2CCN(C(C)=O)CC2)c2c[nH]c3ccccc23)cc1 (stereo not given) | -4% | -12%
O=C(Cn1nc(N2CCN(c3ccccc3)CC2)ccc1=O)Nc1ccc(F)c(Cl)c1 | ? | ?
O=C(Nc1ccccc1Br)C1CC2CCCC(C1)C2=O (stereo not given) | -2% | 31%[activator]
CNC(=O)c1ccc(-c2nc(CN3CCN(C(=O)Nc4cccc(Cl)c4)CC3)c(C)o2)cc1 | -18% | -15%
CC1(C)CC2CC(C)(CN2/C=C/C(=O)C(F)(F)F)C1 (stereo not given) | -12% | -6%
CC(C)(C#CCN1CCCCC1)OCCOC(c1ccccc1)c1ccccc1 | -6% | -7%
O=c1c(N2CCN(c3cccc(Cl)c3)CC2)csc2ccccc12 | 60%[activator] | 44%[activator]
O=C(Nc1cccc(C(F)(F)F)c1)c1ccc(F)c(S(=O)(=O)N2CCc3ccccc3C2)c1 | 18% | -22%
O=C(CCc1nnc2ccc(NCc3ccco3)nn12)Nc1cccnc1 | 9% | 17%
Cc1ccn2c(Nc3ccc4c(c3)OCCO4)c(-c3cccs3)nc2c1 | -7% | 56%[activator]
O=C(CSCc1cccs1)NCC1CC1 | 14% | 42%[activator]
O=C(NCc1cccnc1)c1cc(-c2ccncc2)nc2ccccc12 | 20% | 19%
COc1ccc2c(c1)sc1ncc(C(=O)NCc3ccc(Cl)cc3)c(=O)n12 | -9% | -10%
CN(Cc1ccc2ccccc2c1)C(=O)CN(C)c1ncnc2nc[nH]c12 | ? | 32µM*
CCOc1ccccc1NC(=O)Cc1c[nH]c2ccccc12 | 20% | 0%
COc1cc(/C=C/C(=O)c2ccccc2OC)ccc1OC(F)F | ? | ?
CCCCCCn1nc(C(=O)OCC#N)c2ccccc2c1=O | 37%[activator] | 54%[activator]
CC1CC(C)CN(C(=O)c2ccc(C(C)(C)C)cc2)C1 (stereo not given) | 7% | 32%[activator]
CCOC(=O)c1cc(-c2ccc(C)cc2)n(CCCC(=O)Nc2cc(C)ccc2C)c1 | 16% | 2%
COc1cccc(OC)c1C(=O)Nc1ccc2oc(-c3ccncc3)nc2c1 | 2% | 13%
O=C(CSc1ncc(-c2ccc(F)cc2)o1)NC(=O)c1ccccc1 | -10% | 21%
COc1cc(O)c2c(=O)cc(-c3ccccc3)oc2c1 | 0% | 125%[activator]
CCCCC(=O)Nc1oc2c(C)cccc2c(=O)c1-c1ccccc1 | 1% | 32%[activator]
CC(C)(C)CC(=O)Nc1nnc2n1CCS2 | 9% | 14%
O=C(COC(=O)COc1ccc(C2SCCCS2)cc1)Nc1c(F)cccc1F | -16% | -4%

Source: PubChem
